# Compound activity: PubChem, Southern Research Specialized Biocontainment Screening Center
# Mtb betalactam = beta-lactam sensitization of Mtb H37Rv, H37Rv | M. tuberculosis H37Rv growth with meropenem, percent inhibition; hits of this screen are not shown here | inhibition, % at 25 µM | hit rate 0.27% among 330,000 | AID 434955, 2010;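 active = about 74% or more and at least 40 points above the plate without the antibiotic, then above 30% in a dose series; inconclusive = first-round hits that could not be retested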;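 note: growth measured after seven days incubation then overnight dye step; 0% = bacteria only wells and 100% = bacteria with antibiotic; twin plates without the antibiotic show which effects depend on it; some results filed as inactive read as strong as hits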
# The depositor's hits bear a star; ? = inconclusive. Only part of the results is shown; count on the stated rates, not on these rows.
No.	Molecule	Mtb betalactam
1	CC1(C)CC[C@@]2(C(=O)O)C(C1)C1=CCC3[C@@]4(C)CC[C@H](O)C(C)(C)C4CC[C@@]3(C)[C@]1(C)C[C@H]2O (stereo not given in full)	5
2	O=C(COC(=O)c1ccccc1Cl)NC1CCCCCC1	79
3	CC(=O)Nc1ccc(S(=O)(=O)NC(C)(C#N)C2CC2)cc1 (stereo not given)	1
4	COC(=O)C1=C(c2ccc(OC(F)(F)F)cc2)C[C@@H]2CC[C@H]1N2C(=O)N1CCC(O)CC1	2
5	O=C(OCC(=O)N1CCc2ccccc21)[C@@H]1CC(O)CN1S(=O)(=O)c1ccccc1[N+](=O)[O-] (stereo not given in full)	-2
6	CC1CCc2cc(F)ccc2N1C(=O)c1cccnc1 (stereo not given)	6
7	O=C(CSc1cccc[n+]1[O-])Nc1ccccc1C(F)(F)F	-2
8	COc1ccc(C)cc1N1CC(C(=O)Nc2ccccc2N2CCCCC2)CC1=O (stereo not given)	4
9	O=C(Nc1ccccc1)N1CCC(C(=O)N2CCN(Cc3ccccc3)CC2)CC1	-4
10	Cc1ccc([N+](=O)[O-])cc1NC(=O)c1c(-c2ccccc2)noc1C	-9
11	CCCC(=O)Nc1ccc(C(=O)COC(=O)C2CC2C)cc1 (stereo not given)	-1
12	O=C(Nc1ccc(Cl)c(S(=O)(=O)N2CCCCC2)c1)c1cccnc1	1
13	COC(=O)c1cc(C(=O)NNC(=O)c2ccc3c(c2)OCO3)cc([N+](=O)[O-])c1	-3
14	Cc1ccccc1COC(=O)c1cc([N+](=O)[O-])ccc1N1CCOCC1	-3
15	Cc1c(C(=O)N2CCN(C(=O)c3ccccc3)CC2)oc2ccc(F)cc12	-9
16	Cc1cccc(C(=O)O)c1[N+](=O)[O-]	-2
17	C=CCN(c1ccccc1OC)S(=O)(=O)c1cccc(C(=O)OC2CCOC2=O)c1 (stereo not given)	-1
18	CSc1ccc(S(=O)(=O)N2CCC(C(=O)Nc3ccccc3C(F)(F)F)CC2)cc1	12
19	CC(C)Nc1ccccc1	0
20	COc1cc2cc(CCOC(=O)c3ccc(F)cc3)oc(=O)c2cc1OC	-1
21	CC1(C)C(=O)CC[C@@]2(C)[C@H]1CC[C@@]1(C)CC3=C(CC[C@@H]12)[C@@]1(C)CCC(=O)C(C)(C)[C@@H]1CC3	-5
22	CCOc1ccc(NC(=O)C2CCN(S(C)(=O)=O)CC2)cc1	-2
23	COc1ccc(C(=O)NC(=S)N2CCN(c3ccccc3O)CC2)cc1	1
24	COc1ccc(NC(=O)Nc2ccc3c(c2)C(=O)N([C@H](C)CO)C[C@H](C)[C@@H](CN(C)C(=O)Nc2c(C)noc2C)O3)cc1	-9
25	O=C(COC(=O)C1=COCCO1)Nc1ccc(Br)cc1Br	74

# Molecules from the list above containing four or more nitrogen atoms, in the order listed:
No.	Molecule	Mtb betalactam
9	O=C(Nc1ccccc1)N1CCC(C(=O)N2CCN(Cc3ccccc3)CC2)CC1	-4
24	COc1ccc(NC(=O)Nc2ccc3c(c2)C(=O)N([C@H](C)CO)C[C@H](C)[C@@H](CN(C)C(=O)Nc2c(C)noc2C)O3)cc1	-9

# Single values from the entries so far.
# `O=C(OCC(=O)N1CCc2ccccc21)[C@@H]1CC(O)CN1S(=O)(=O)c1ccccc1[N+](=O)[O-]` (stereo not given in full) @ Mtb betalactam = -2
# `Cc1ccc([N+](=O)[O-])cc1NC(=O)c1c(-c2ccccc2)noc1C` @ Mtb betalactam = -9
# `O=C(Nc1ccc(Cl)c(S(=O)(=O)N2CCCCC2)c1)c1cccnc1` @ Mtb betalactam = 1
# `COc1ccc(NC(=O)Nc2ccc3c(c2)C(=O)N([C@H](C)CO)C[C@H](C)[C@@H](CN(C)C(=O)Nc2c(C)noc2C)O3)cc1` @ Mtb betalactam = -9
# `COc1cc2cc(CCOC(=O)c3ccc(F)cc3)oc(=O)c2cc1OC` @ Mtb betalactam = -1

# The main list resumes, starting 2 compounds before the break.
No.	Molecule	Mtb betalactam
24	COc1ccc(NC(=O)Nc2ccc3c(c2)C(=O)N([C@H](C)CO)C[C@H](C)[C@@H](CN(C)C(=O)Nc2c(C)noc2C)O3)cc1	-9
25	O=C(COC(=O)C1=COCCO1)Nc1ccc(Br)cc1Br	74
26	CCOC(=O)c1sc(NC(=O)CCN2C(=O)C3CCCCC3C2=O)cc1C (stereo not given)	-10
27	CC(C)(C)N(Cc1ccccc1)C(=O)COC(=O)C1CCCCC1	-13
28	CCOc1ccc2nc(SCC(=O)NCC3CCCO3)sc2c1 (stereo not given)	4
29	C[C@@H]1CN([C@H](C)CO)C(=O)c2cc(NC(=O)Cc3cn(C)c4ccccc34)ccc2O[C@H]1CN(C)S(=O)(=O)c1ccc(F)cc1	9
30	COc1ccc(-c2oc(=O)c3cc(OC)c(OC)cc3c2-c2cc(F)cc(OC)c2)cc1	5
31	CCCN(CC1CC1)C(=O)COC(=O)c1ccc(C)cc1O	92
32	COc1ccc(Br)cc1CN(C)C(=O)C1=CC=CN2CCS(=O)(=O)N=C12	-8
33	CCN(CC)S(=O)(=O)c1cc(NC(=O)CCn2[nH]c(=O)ccc2=O)ccc1C	-10
34	N#Cc1ccc(Cl)cc1NC(=O)CSc1cccc[n+]1[O-]	-4
35	CCCN1CCN(C(=O)c2ccc(-c3ccc([N+](=O)[O-])cc3)o2)CC1	7
36	CCN1CCN(c2ccc(S(=O)(=O)N3CCOCC3)cc2NC(=O)c2ccc(C)cc2C)CC1	-1
37	COc1ccc(NC(=O)CN2C(=O)NC(C)(C3CC3)C2=O)cc1S(=O)(=O)N1CCCCC1 (stereo not given)	-11
38	Nc1ncnc2c1ncn2[C@@H]1O[C@H](CNCc2cccn2-c2nccs2)[C@@H](O)[C@H]1O	-2
39	CC(C)CC(=O)Nc1ccc(C(=O)COC(=O)C2CC(=O)N(Cc3ccccc3)C2)cc1 (stereo not given)	0
40	CN(CC(=O)Nc1cccc(F)c1)C(=O)COc1ccc2c(c1)CCC2	2
41	O=C(Nc1ccc(Cl)cc1)c1nc[nH]c1C(=O)NCCCCNC(=O)c1[nH]cnc1C(=O)Nc1ccc(Cl)cc1	9
42	COc1ccc(-n2c(=S)[nH]c3cc(C(=O)N4CCN(c5ccccc5)CC4)ccc3c2=O)cc1	-1
43	CS(=O)(=O)c1ccc2nc(NC(=O)c3ccc(Cl)cc3)sc2c1	-10
44	COc1ccc(N(CCC(=O)NCCc2ccccc2)S(=O)(=O)c2ccc(C)cc2C)cc1	-3
45	COc1ccc(CNCCCC(=O)Nc2c(Cl)ccc(C)c2Cl)cc1OC	-3
46	COc1cc(OC)cc(C(=O)Nc2ncn[nH]2)c1	4
47	CC(O)[C@H]1CC[C@H]2[C@@H]3CC[C@H]4C[C@H](O)CC[C@]4(C)[C@H]3[C@H](O)C[C@]12C (stereo not given in full)	-14
48	Cc1ccc(SCC(=O)NNC(=O)CCS(=O)(=O)c2ccccc2)cc1	-4
49	CC(C)N(C(=O)COC(=O)c1cccnc1Cl)c1ccccc1	-6
50	Cc1cccc(OCC(=O)N(C)CC(=O)Nc2cccc(F)c2)c1C	-3

# In another format: entries from further up.
[32] COc1ccc(Br)cc1CN(C)C(=O)C1=CC=CN2CCS(=O)(=O)N=C12
  Mtb betalactam = -8

[50] Cc1cccc(OCC(=O)N(C)CC(=O)Nc2cccc(F)c2)c1C
  Mtb betalactam = -3

[48] Cc1ccc(SCC(=O)NNC(=O)CCS(=O)(=O)c2ccccc2)cc1
  Mtb betalactam = -4

[33] CCN(CC)S(=O)(=O)c1cc(NC(=O)CCn2[nH]c(=O)ccc2=O)ccc1C
  Mtb betalactam = -10

# (cont.)
No.	Molecule	Mtb betalactam
51	COc1ccccc1N1CCN(c2ccc(S(=O)(=O)N3CCN(C)CC3)cn2)CC1	-2
52	CN1CCCN(Cc2ccccc2Br)CC1	-5
53	COc1ncc(-c2ccc3c(c2)S(=O)(=O)c2cccc(C(=O)NCc4ccco4)c2C3=O)cn1	-1
54	O=C(CSc1nc2ccccc2c(=O)[nH]1)Nc1ccc([N+](=O)[O-])cc1	-7
55	CSc1cccc(NC(=O)COC(=O)c2ccccn2)c1	0
56	O=C(O)COc1ccc(/C=C/c2nc(-c3ccccc3O)n[nH]2)cc1	92
57	O=C(O)c1n[nH]c2c1CC(C1CCCCC1)CC2 (stereo not given)	-6
58	C[C@@H]1[C@H](O)C[C@@]23COC(=O)C2=CCCC3[C@@]1(C)CCC1COC(=O)C1 (stereo not given in full)	-4
59	CCCNC(=O)C(Cc1ccccc1)NC(=O)Cc1ccccc1 (stereo not given)	5
60	O=C(CN1C(=O)S/C(=C/c2cccs2)C1=O)N1CCCC1	3
61	Cc1ccc(S(=O)(=O)NC2CCCCC2)cc1	-6
62	CCCC(=O)NC(c1ccccc1Cl)c1ccc2cccnc2c1O (stereo not given)	7
63	CN(C(=O)COC(=O)c1ccc(Cl)c(S(=O)(=O)N2CCCCC2)c1)C1(C#N)CCCCC1	-4
64	Cc1ccc(S(=O)(=O)N2[C@@H](c3ccc(F)cc3)C(C(=O)O)=CC[C@H]2c2ccc(C(C)C)cc2)cc1	-3
65	COc1ccc2nc3n(c(=O)c2c1)-c1ccc(Cl)cc1C(=O)NC3Cc1ccccc1 (stereo not given)	-1
66	COc1ccc(C(=O)Nc2ncc(C)s2)cc1S(=O)(=O)N1CCOCC1	-3
67	CCCCC1(c2ccc(F)cc2)NC(=O)N(CC(=O)Nc2ccc(N3CCOCC3)cc2)C1=O (stereo not given)	-2
68	Cc1nn(Cc2ccccc2)c(C)c1CNC(=O)c1ccc(F)c(S(=O)(=O)N2CCOCC2)c1	-7
69	COc1cc(C(=O)COC(=O)C2CCCCC2)cc(OC)c1OC	4
70	CCN(CC)c1ccc(NC(=O)C2=CC=CN3CCS(=O)(=O)N=C23)cc1	13
71	O=C(c1ccccc1NS(=O)(=O)c1ccccc1[N+](=O)[O-])N1CCCC1	?
72	O=C(Cc1ccc([N+](=O)[O-])cc1)Nc1cccc(C(=O)N2CCOCC2)c1	6
73	Cc1cccc2nc(C(=O)Nc3cc(Cl)ccc3-n3cncn3)cn12	58
74	CCCCNC(=O)C(CC)(ONc1ccccc1C(F)(F)F)c1ccccc1 (stereo not given)	3
75	CCCn1c(SCC(=O)Nc2cc(Cl)ccc2OC)nc(O)cc1=O	0

# (listing goes on)
No.	Molecule	Mtb betalactam
76	COc1ccc(CNC(=O)c2ccc(NS(=O)(=O)c3ccc4[nH]c(=O)[nH]c4c3)cc2)cc1OC	5
77	CCN(CC)S(=O)(=O)c1cc(NC(=O)CCc2c(C)noc2C)ccc1C	-6
78	CC(C)(C)OC(=O)C[C@H]1C/C=C\C[C@@H](CC(=O)N(CCO)Cc2ccccc2)C(=O)N[C@H](Cc2ccccc2)COC1=O	-2
79	O=C(C[C@@H]1C/C=C\C[C@H](NC(=O)OCC2c3ccccc3-c3ccccc32)C(=O)OC[C@H]2CCCN2C1=O)N[C@@H](CO)Cc1ccccc1	96
80	CCCN(Cc1nc2cc(Cl)ccc2c(=O)[nH]1)C(=O)c1ccc(S(=O)(=O)N2CCCC2)cc1	-2
81	CSc1ncccc1C(=O)OCC(=O)NC1CCCC1	0
82	O=C(CCNC(=O)c1ccc([N+](=O)[O-])cc1)NCc1cccs1	-6
83	Cc1cccc(NC(=O)c2ccc(OCc3c(C)noc3C)cc2)c1	45
84	Cc1ccc(/C=N/NC(=O)c2cccc(NC(=O)c3ccccc3Cl)c2)o1	5
85	O=C(CSc1ccc(F)cc1)Nc1cccc(S(=O)(=O)N2CCOCC2)c1	-4
86	O=C(COc1ccccc1)OCC(=O)c1ccc(S(=O)(=O)N2CCCCC2)cc1	1
87	O=c1oc(-c2ccc(O)c(O)c2)cc2cc(O)cc(O)c12	-1
88	CC(C)(C)C(C(=O)Oc1ccccc1)c1ccccc1 (stereo not given)	-8
89	COC(=O)C1=C(c2ccc(-c3ccccc3)c(F)c2)C[C@@H]2CC[C@H]1N2C(=O)N1CCCCC1	8
90	Cc1ccc(CNC(=O)Cn2cnc3c(OCc4ccccc4)ncnc32)o1	-2
91	Cc1cc(C)c(C)c(S(=O)(=O)N2CCN(C(=O)c3ccccc3OCc3c(C)noc3C)CC2)c1C	-4
92	COc1ccc2sc(-c3ccccc3OC)c(-c3ccc(O)cc3)c2c1	34
93	CC1(C)C(C(=O)O)N2C(=O)C(NC(=O)Cc3ccccc3)C2S1=O (stereo not given)	-15
94	CSc1ncccc1C(=O)Nc1cccc(S(=O)(=O)N2CCCCC2)c1	-4
95	O=C(COC(=O)C1COc2ccccc2O1)Nc1cccc(F)c1 (stereo not given)	4
96	COc1cc(CC(=O)OCC(=O)c2ccc[nH]2)cc(OC)c1OC	-2
97	Cc1nnc(SCC(=O)NCC2CCCO2)n1Cc1ccccc1 (stereo not given)	0
98	Cc1ccsc1C(=O)Nc1ccc(S(=O)(=O)N2CCOCC2)cc1	-4
99	Cc1ccc(NC(=O)COC(=O)CN2CCCCCC2=O)c(C)c1	-2
100	CCN1C(=O)[C@H]2[C@@H](c3ccc(-c4ccc(F)cc4)cc3)N[C@@](C)(C(=O)OC)[C@H]2C1=O	-1
101	CN(C)c1ccc(/C=C(\C#N)C(=O)OCC(=O)N(C)C2CCS(=O)(=O)C2)cc1 (stereo not given)	-3
102	O=C(NCc1ccccc1CN1CCCC1)C1CCN(C(=O)c2ccc(F)cc2)CC1	1
